# High-throughput results deposited in PubChem by National Center for Advancing Translational Sciences (NCATS).
# AmpC inh no det = inhibitors of E. coli AmpC beta-lactamase without detergent | P00811 | AmpC nitrocefin hydrolysis, absorbance 480 nm, no detergent; potencies from a single point are estimates | Potency, µM (series often up to 28.7 µM), inactives show top-dose activity change, negative = inhibition | 1.8% of 71,000 active; active = falling curve, for most hits resting on a single point; inconclusive = weak or doubtful change; inactive = flat or rising curve; also: % of control where 0% means no effect; about half of the hits show no inhibition at the top dose; a quarter of the inactives give rising signals
# Target sequence (P00811 whole entry, looked up): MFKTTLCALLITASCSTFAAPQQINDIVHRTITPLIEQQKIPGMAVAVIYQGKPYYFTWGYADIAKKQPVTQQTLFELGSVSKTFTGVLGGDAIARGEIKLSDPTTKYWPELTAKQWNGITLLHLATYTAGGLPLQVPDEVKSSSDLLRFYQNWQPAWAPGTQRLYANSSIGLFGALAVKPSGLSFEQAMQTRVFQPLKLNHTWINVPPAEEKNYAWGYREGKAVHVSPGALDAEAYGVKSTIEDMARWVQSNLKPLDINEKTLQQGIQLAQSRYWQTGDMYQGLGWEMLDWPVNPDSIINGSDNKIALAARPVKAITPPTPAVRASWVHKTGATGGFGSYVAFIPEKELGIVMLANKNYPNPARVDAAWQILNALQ
#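 Enzyme, pH 7.0 phosphate. Compound titrations were pre-incubated with AmpC for 15 min at room temperature before nitrocefin (stock 800 uM) addition; product formation was recorded at 480 nm every 20 s for 4 min.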
# Active calls of the source: *; & = joins results of further samples; [ ] = dose if it differs, or a comment. Potency is read from the fitted curve at half-maximal effect.
smiles,AmpC inh no det
CC(=O)O[C@H]1CC[C@]2(C)C(=CC[C@H]3[C@H]4C[C@H]5O[C@]6(CC[C@H](C)CN6)[C@H](C)[C@@H]5[C@]4(C)CC[C@@H]32)C1,-7%[5.75 µM]
COc1ccc(-c2nc(CS(=O)CC(=O)NCc3ccco3)c(C)o2)cc1OC (stereo unspecified),4µM*[single pt active]
COc1ccc(N2CCN(C(c3ccccc3OC)c3nnnn3C3CCCC3)CC2)cc1 (stereo unspecified),76%
CC(=O)C1C(c2ccc(F)cc2)NC(=O)NC1(O)C(F)(F)F (stereo unspecified),0%
CCc1nnc(NS(=O)(=O)c2ccc(N3C(=O)C4CC=C(Cl)CC4C3=O)cc2)s1 (stereo unspecified),-10%
Cc1noc(/C=C/N(C)C)c1S(=O)(=O)N1CCCC(C(=O)NCc2cccs2)C1 (stereo unspecified),39%
O=C(Nc1cccnc1)c1ccc(NC(=O)c2ccco2)cc1,-6%
O=C(c1ccc(F)cc1)N1C2CCC1CC(O)(c1ccccc1F)C2 (stereo unspecified),22%
CCCn1c(N)c(N(C)C)c(=O)n(CC(=O)Nc2ccc(OC(F)(F)F)cc2)c1=O,21%
CC(C)c1[nH]nc2c1C1(CCN(Cc3ccccc3)CC1)C(C#N)=C(N)O2,4%
CC1(C)CC(c2csc(N)n2)CCO1 (stereo unspecified),-1%
CN(C)Cc1ccccc1,-16%
COc1ccc(-n2c(=O)cc(N3CC(C)OC(C)C3)[nH]c2=O)cc1 (stereo unspecified),12%
Cc1ccc(NCc2nnc(SCC(=O)OC3CCCCC3)o2)c(C)c1,53%
Cc1c(C(=O)O)sc2ncn(C)c(=O)c12,-5%
CC(C)CN1CN(S(=O)(=O)c2cccs2)c2nc3ccccc3nc21,3%
COC(=O)COc1ccc(S(=O)(=O)Nc2ccc(NC(C)=O)cc2)cc1C,-7%
COc1cccc(Nc2ncnc3c2cnn3C)c1,-12%
CCCn1cnc2c(c1=O)c1nc3ccccc3nc1n2CCc1ccccc1,87%
CCOC(=O)c1c(C)c(C(=O)NCc2ccccn2)c(C)n1CC,24%
Cc1nn(-c2ccc(F)cc2)c2c1cc(C#N)c1nc3ccccc3n12,16%
O=C1COc2ccc(C(=O)c3ccccc3)cc2CN1,6%
Cc1sc2nc(CN(Cc3cccs3)C(=O)C3CC3)[nH]c(=O)c2c1C,27%
Cc1cccc(N2CCN(C(=O)c3cc4c(=O)n(C)c5ccccc5c4n3C)CC2C)c1 (stereo unspecified),92%
Cc1cc(C)n(C(=O)CNC(=O)c2ccco2)n1,8%
CCCNC(=O)COC(=O)c1ccc(S(=O)(=O)N2CCCCCC2)cc1,15%
C=CCn1c(SCC(=O)Nc2c(C)cccc2C)nnc1-c1cnccn1,0%
C[C@@H](C(=O)NCc1ccc(S(C)(=O)=O)cc1)[C@@H]1C[C@@]1(C)[C@@H](NC(=O)OCc1ccccc1)c1ccccc1,79%
Cc1cc(C(=O)CN2C(=O)NC3(CCCCC3)C2=O)c(C)n1Cc1ccc2c(c1)OCO2,41%
CCNc1ncc2nc(-c3ccc(Cl)cc3)c(=O)n(CCC#N)c2n1,-8%
Cc1ccnc(Nc2nc(-c3c(C)nc4sccn34)cs2)c1,51%
Cc1ccc(OCC(=O)Nc2ccc(N3CCCC3)cc2)cc1C,20%
COc1ccc(CN2CCN(C(=O)Cc3ccccc3)CC2)c(OC)c1,52%
CCCOc1cccc(C(=O)Nc2cccc(NC(=O)c3ccco3)c2)c1,-14%
C=CCn1c(SCC(=O)NCC2CCCO2)nnc1C1CCCCC1 (stereo unspecified),-1%
O=C(COc1nncc2ccccc12)NCCC1=CCCCC1,11%
COC(=O)c1ccc(CSc2nc(C)nc3sc(C)c(C)c23)o1,19%
CCOn1c(=O)c(=O)n(OCc2ccccc2)c2ccccc21,6%
CC1=C(C(=O)OC(C)C)C(c2cccs2)N2C(=O)CCSC2=N1 (stereo unspecified),41%
Cc1ccc(C(c2sc3ncnn3c2O)N2CCC(C)CC2)cc1 (stereo unspecified),59%
Cc1ccc2nc3c(cc2c1)CC1(C(=O)N(C)C(=O)N(C)C1=O)C1COCCN31 (stereo unspecified),70%
CCCC(C)C1(CC)C(=O)NC(=Nc2ccc(F)cc2)NC1=O (stereo unspecified),-11%
CCC(=O)Nc1nc2c(OC)ccc(C)c2s1,20%
O=C(COc1ccc(Cl)cc1Cl)NCCCN1CCOCC1,16%
Cc1onc(-c2ccccc2)c1C(=O)OCC(=O)Nc1ccc2c(c1)OCO2,-5%
CCOC(=O)C1CCN(S(=O)(=O)c2cn(C)c(=O)n(C)c2=O)CC1,-7%
COc1ccc(OC(=O)CCCN2C(=O)c3ccccc3C2=O)cc1,18%
O=C(Nc1cccc2nsnc12)c1cccs1,-15%&-6%
CCC1Oc2ccc(C)cc2N(CC(=O)NCc2cccc(OC)c2)C1=O (stereo unspecified),12%
CC1Cn2c(nnc2-c2cccc(N)c2)S1 (stereo unspecified),7%
CCOC(=O)C(CC)n1cnc2sc3c(c2c1=O)CCC3 (stereo unspecified),10%
CC(C)(C)OC(=O)N[C@@H](Cc1ccccc1)c1nnc(SCC(=O)O)o1,-4%
COCCNS(=O)(=O)c1ccc(C2CNC(=O)C2)cc1 (stereo unspecified),4µM*[single pt active]
Cc1ccc(N(C(=O)C2CCCC2)C2C=CS(=O)(=O)C2)cc1C (stereo unspecified),21%
Cn1ccnc1P(=S)(c1nccn1C)N1CCOCC1,-12%
O=C(c1cccn2c(=O)c3ccccc3nc12)N1CCN(c2ccccn2)CC1,55%

# Sorted by heavy-atom count (rising): 3 of the compounds above
smiles,AmpC inh no det
CC1Cn2c(nnc2-c2cccc(N)c2)S1 (stereo unspecified),7%
CCC1Oc2ccc(C)cc2N(CC(=O)NCc2cccc(OC)c2)C1=O (stereo unspecified),12%
O=C(c1cccn2c(=O)c3ccccc3nc12)N1CCN(c2ccccn2)CC1,55%

# Next part.
smiles,AmpC inh no det
CCc1ccc2nc(N3CCN(C)CC3)c(C#N)cc2c1,59%
CC(C)OC(=O)CSc1n[nH]c(-c2cccnc2)n1,1%
Cc1cc(NC(=O)c2cc3nc(C4CC4)cc(C(F)(F)F)n3n2)no1,-7%
C[C@](N)(C(=O)O)c1ccc(-c2nn[nH]n2)cc1,-3%
CC(C)NC(=O)N1CCCC2(CCN(C(=O)c3cccc(F)c3)CC2)C1,2%
Cc1csc(NC(=O)CCCSc2nc3ccccc3s2)n1,1%
Cc1nc(NC(=O)CSc2nc3cccnc3n2C2CCCCC2)sc1C,55%
Cc1cc(CN2CCN(CCC#N)CC2)c(O)c(C2(C)CCCCC2)c1,14%
CCn1c(C(=O)N2CCc3ccccc3C2)cc2sccc21,55%
COc1cccc(Cn2c(=O)cnc3cnc(Nc4cccc(OC)c4)nc32)c1,12%
O=C1CCC(C(=O)Nc2ccc(OC(F)F)cc2)N1 (stereo unspecified),-1%
CCN(C(=O)c1coc(=O)c(Br)c1)c1ccc2c(c1)OCO2,-10%
CC(=O)NC1CC2CCCC(C1)N2C(=O)Nc1ccc(Cl)c(C(F)(F)F)c1 (stereo unspecified),50%
CC(C)OCC(O)Cn1c(N2CCCC2)nc2c1c(=O)[nH]c(=O)n2C (stereo unspecified),4%
CCC(=NC1CC1)c1c(O)n(-c2ccc(OC)cc2)c(=O)[nH]c1=O,1%
Cc1noc(C)c1C(=O)N1CCC2(CCCN(C(=O)Nc3cccc(F)c3)C2)CC1,11%
c1ccc(Cc2nnc3sc(-c4ccccn4)nn23)cc1,4%
CCS(=O)(=O)N1CCN(c2nc(-c3ccccc3)cs2)CC1,42%
CCCc1cc(C(=O)NC2CCCCC2)no1,0%
CCN1C(=O)c2ccc(C(=O)NCc3ccccc3)cc2C1=O,-11%
Cc1ccc(Cl)cc1N1CCN(C(=O)COc2ccc(S(=O)(=O)NC(C)C)cc2)CC1,45%
CC(C)c1nnc(NC(=O)CCC(=O)Nc2ccc(F)cc2)s1,19%
COC(=O)c1ccc(COc2ccc3c(C)c(C)c(=O)oc3c2)o1,3%
CCOC(=O)C1CCCN(C(=O)COC(=O)c2cc(=O)c3ccccc3o2)C1 (stereo unspecified),24%
CCOC(=O)c1[nH]cnc1C(=O)Nc1ccncc1,-4%
CC(C)CC(C(=O)Nn1cnnc1)N1C(=O)c2ccccc2C1=O (stereo unspecified),10%
Oc1ccc(O)cc1,-4%&-8%
COc1cc2cc(C(=O)Nc3ccccc3)c(N)nc2cc1OC,140%
Oc1ccccc1-c1nnc(SCCN2CCOCC2)n1Cc1ccccc1,25%
NC(=O)c1ccc([N+](=O)[O-])cc1,-20%
OC(COCc1cccs1)CN1CCN(c2ccccn2)CC1 (stereo unspecified),2%
CC(=O)Nc1ccc(OCC(O)CN2CCN(c3cc(Cl)ccc3C)CC2)cc1 (stereo unspecified),139%

# Copied from the list.
# CCOC(=O)c1[nH]cnc1C(=O)Nc1ccncc1 in AmpC inh no det is entered as -4%
# CC(=O)Nc1ccc(OCC(O)CN2CCN(c3cc(Cl)ccc3C)CC2)cc1 (stereo unspecified) in AmpC inh no det is entered as 139%

# (more compounds)
smiles,AmpC inh no det
Cc1cc(Nc2ccc(Br)c(C)c2)n2nc(C)nc2n1,69%
COCCn1c(SCC(N)=O)nc2c(c1=O)SC(C)C2 (stereo unspecified),-5%
COc1cccc(C2CC(c3ccccc3Cl)Nc3nc(N)nn32)c1 (stereo unspecified),64%
O=C1OCCN1/N=C\c1ccc([N+](=O)[O-])o1,-12%[12.8 µM]
CCCc1cc(=O)n2[nH]c(NCc3ccccc3Cl)nc2n1,-21%
COc1ccc(C2NCc3ccc4c(c3-n3cccc32)OCO4)cc1OC (stereo unspecified),12%
COc1ccc(NC(C)=O)cc1NC(=O)CSc1nnc(-c2ccccc2)n1N,-1%
CCCC(=O)OC(=O)CCC,-11%
Cn1c(=O)c2c(nc(CN3CCOCC3)n2CCc2ccccc2)n(C)c1=O,38%
CCOC(=O)C1(C)NC(c2ccc(OC)c(OC)c2)C2C(=O)N(CC)C(=O)C21 (stereo unspecified),6%
CCN1CCN(C(c2cccs2)C(C)NC(=O)c2cccnc2)CC1 (stereo unspecified),-14%
CCCCn1c(SCc2cc(=O)n3ccsc3n2)nc2cc(C(=O)OC)ccc2c1=O,20%
CC1=C(C(=O)Nc2ccccc2)C(c2ccco2)n2ncnc2N1 (stereo unspecified),3%
COCCn1nnnc1CN1CCC(NC(=O)c2ccc(Br)cc2)CC1,7%
CC(=O)C1=C(O)C(=O)N(CC(=O)O)C1c1ccccc1Cl (stereo unspecified),6%
O=C(c1cccc(Cl)c1Cl)N1CCN(c2ccccn2)CC1,32%
CN[C@@H](CC(C)C)C(=O)N[C@@H]1C(=O)N[C@H](CC(N)=O)C(=O)N[C@@H]2C(=O)N[C@H]3C(=O)N[C@H](C(=O)N[C@H](C(=O)O)c4cc(O)cc(O)c4-c4cc3ccc4O)[C@H](O)c3ccc(c(Cl)c3)Oc3cc2cc(c3O[C@H]2O[C@@H](CO)[C@@H](O)[C@@H](O)[C@@H]2O[C@@H]2C[C@](C)(N)[C@H](O)[C@H](C)O2)Oc2ccc(cc2Cl)[C@@H]1O,-1%[12.8 µM]
Cc1c(Br)cc(C(=O)N2CCCC2)c(C)c1C,30%
CC(CO)(CO)N=Cc1c(O)n(-c2cccc3ccccc23)c(=O)[nH]c1=O,0%
CS(=O)(=O)c1cccc(C(=O)Oc2ccccc2)c1,-6%
O=C(Oc1ccc(-c2nnco2)cc1)N(c1ccccc1)c1ccccc1,78%
CC1CN(CC(=O)N2CCc3[nH]c4ccccc4c3C2)CC(C)O1 (stereo unspecified),55%
Cc1nc(-c2ccccc2)cc(=O)[nH]1,-11%
C/C(=C(\C#N)C(=O)NCCCN1CCOCC1)N(C)C,-11%

# The list goes on, starting with the last two of the part before.
smiles,AmpC inh no det
Cc1nc(-c2ccccc2)cc(=O)[nH]1,-11%
C/C(=C(\C#N)C(=O)NCCCN1CCOCC1)N(C)C,-11%
Cc1ccc(-c2nnn(CC(=O)N(CC(=O)NC3CCCC3)c3cnc4ccccc4c3)n2)o1,96%
CCOC(=O)Cc1csc(NS(=O)(=O)Cc2ccccc2)n1,-1%
CC(C)c1cc(NC(=O)C(C)(C)C)cc(C(C)C)c1O,-1%
CN1C(=O)CCC1(O)c1ccccc1 (stereo unspecified),-1%
COc1ccc(OC)c(-n2nnnc2SCC(=O)Nc2ccc3c(c2)OCCO3)c1,1%
CCOC(=O)c1cn(CC(=O)Nc2ccc(CC)cc2)nn1,0%
COc1cccc(CNC(=O)C(CCSC)NS(=O)(=O)c2ccc3c(c2)oc(=O)n3C)c1 (stereo unspecified),-17%
CSc1nc(N)c2ncn([C@@H]3O[C@@H](COP(=O)(O)OP(=O)(O)O)[C@@H](O)[C@H]3O)c2n1,7%
CCOC(=O)C1=C(C)C(c2ccc(OC)cc2OC)NC(=O)N1 (stereo unspecified),22%
O=C(Nc1sc2c(c1C(=O)O)CCCCC2)c1ccco1,-11%
O=C(NCc1cccc(F)c1)C1CCN(S(=O)(=O)Cc2ccccc2)CC1,17%
COc1cccc(-c2ccc3ncnc(NCCc4c[nH]c5ccc(OC)cc45)c3c2)c1,-25%
CC12CCC(C(=O)N3CCCCC3)(CC1=O)C2(C)C (stereo unspecified),10%
Cc1ccc(CN2C3=NC(=O)CN3c3ccccc32)cc1,14%

# An excerpt (hit frequency here may not be typical).
